High-throughput results: PubChem, National Center for Advancing Translational Sciences (NCATS)
Rango dissoc inh = prevents RanGTP from dissociating the Rango-importin beta complex. O95149+P62826. actives 0.071% (n = 340,000). Potency, µM (titrated, usually from 46.1 µM), inactives show at the highest dose activity change, negative = inhibition. Biochemical FRET Rango-importin beta, RanGTP-induced dissociation; active means falling FRET ratio curve, often poorly fitted, with flat reads before Ran was added; inconclusive means other falling curves, or compound fluorescence or quenching; inactive means flat or rising ratio curve;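 note: potency is the fitted concentration of half-maximal effect; % of control where 0% means no effect; nearly all actives have a fitted effect of over 45% in size; -100% = wells without RanGTP and RCC1; the record marks most hits as doubtful in a second field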
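Rango FRET biosensor (snurportin-1 IBB flanked by N-terminal EYFP and C-terminal CFP10) at 0.1 uM, with 0.25 uM importin beta in PBS, 1mM DTT, 0.02% Tween-20, 0.1% BSA. 0.6 uM Ran, 2mM GTP and 0.2 uM RCC1 were then added for 45 min at room temperature. Inhibition read as loss of FRET rise.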
miR-21 reporter = miR-21 reporter, rising signal; HeLa miR-21 FLuc reporter, luciferase, 48 h; Potency, µM (doses to about 38.3 µM), without a hit: at the top dose reporter change, positive = more light; 340,000 tested, under 10 active; AID 2288; active = well fitted rising curve with a large enough effect; inconclusive = small, poorly fitted or top-dose-only effect; inactive = no such curve, though single readings can be large or run the other way;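 note: % of control where 0% means no effect; miR-21 action dims this reporter so a rising signal means less miR-21 action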
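Luminescence from a firefly luciferase reporter carrying a miR-21 binding site downstream, stably expressed under a CMV promoter in HeLa cells that make miR-21 endogenously, reports miRNA modulation after 48 h compound exposure up to approximately 40uM final.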
GLA inh pH 4.5 = inhibitors of human alpha-galactosidase A at pH 4.5; AID 1467; purified enzyme, 4-MU-alpha-Gal fluorescence, pH 4.5; P06280; 230,000 tested, under 10 active; activity change, negative = inhibition, % at 105 µM; inconclusive = small, poorly fitted or top-dose-only inhibition, or a rising curve; inactive = flat fitted curve, though single readings scatter; no compound was filed as active;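 note: 0% = full activity with enzyme and -100% = basal without enzyme; dose as in the result columns while the protocol names 77 µM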
Target sequence (P06280 whole entry, looked up): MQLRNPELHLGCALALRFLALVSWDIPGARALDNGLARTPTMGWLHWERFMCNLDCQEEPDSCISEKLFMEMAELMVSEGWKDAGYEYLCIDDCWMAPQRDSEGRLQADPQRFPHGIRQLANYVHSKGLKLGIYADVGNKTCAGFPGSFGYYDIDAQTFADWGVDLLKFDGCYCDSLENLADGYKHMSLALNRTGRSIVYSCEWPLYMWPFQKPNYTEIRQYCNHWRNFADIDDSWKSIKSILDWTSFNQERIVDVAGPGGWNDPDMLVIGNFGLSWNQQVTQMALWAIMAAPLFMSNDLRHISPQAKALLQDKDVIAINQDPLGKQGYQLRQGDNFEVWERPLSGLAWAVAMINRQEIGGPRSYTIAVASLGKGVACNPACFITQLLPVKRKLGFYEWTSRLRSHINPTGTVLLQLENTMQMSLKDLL
Rango-impB inh = prevents formation of the Rango-importin beta complex. Q14974. Rango CFP/YFP FRET sensor + importin beta, 45 min. Potency, µM (titrated, usually from 92.2 µM), for inactives: top-dose inhibition of complex formation. actives 0.031% (n = 340,000). AID 540263; active = rising FRET ratio curve, often small or poorly fitted; inconclusive = mostly compound fluorescence or quenching in the first reads; inactive = flat curves in all reads;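 note: potency is the fitted concentration of half-maximal effect; 0% = DMSO wells and 100% = buffer wells lacking importin beta; nearly all actives have a fitted effect of over 15% in size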
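FRET biosensor Rango (snurportin 1 IBB between N-terminal EYFP and C-terminal Cerulean), 50 nM in PBS/1 mM DTT/0.02% Tween-20/0.1% BSA, preincubated 5 min RT with compound; 0.125 microM importin beta added, 45 min RT, CFP/YFP FRET ratio read.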
Active calls of the source: *; u = inconclusive; x = not tested or not shown; & = joins results of further samples.

Values in the order – Rango dissoc inh | Rango-impB inh | miR-21 reporter | GLA inh pH 4.5
- CCCCNC(=O)c1ccc2c(c1)ncn2C1CCCC1
 : -4% | 6.6% | -7% | -5
- COc1ccccc1CNC(=O)C1CCN(S(=O)(=O)c2cccc([N+](=O)[O-])c2)CC1
 : 9% | -0.5% | 0% | x
- CN1CCN(C(=O)/C=C\c2ccc(Cl)cc2)CC1
 : -15% | -1.8% | -19% | 6
- Cc1cnc(CNC(=O)C2CCC(=O)N(Cc3ccc(Cl)cc3)C2)[nH]1 (centres undefined)
 : 11% | -1.5% | -9% | x
- O=C(CSc1ncnc2nc[nH]c12)Nc1ccc(Br)cc1Cl
 : 2% | 0.0% | -27% | -3
- COc1ccc(CCNc2nc(C)cc(C)n2)cc1OC
 : 5% | 1.6% | -3% | x
- N#Cc1c(NC(=O)CN2C(=O)c3ccccc3C2=O)oc(-c2ccccc2)c1-c1ccccc1
 : 1% | 0.0% | x | x
- Cc1ccc(S(=O)(=O)Nc2ccc3c(c2)nc2n3CCN(Cc3ccccc3)C2)cc1
 : -17% | 0.8% | -2% | 7
- CCC(C)NC(=O)c1oc2ccc(S(=O)(=O)N3CCC4(CC3)OCCO4)cc2c1C (centres undefined)
 : -7% | -3.5% | 13% | x
- Cc1[nH]c2ccccc2c1Cc1nnc(SCc2ccccc2)o1
 : -14% | 0.4% | -14% | -11
- Cc1ccc(C)c(CSC2=NCCN2C(=O)c2cccs2)c1
 : -4% | -1.5% | -2% | -1
- CCCNC(=S)Nc1ccc(Oc2ccccc2)cc1
 : -4% | 1.8% | 2% | -1
- Cc1cccc(NC(=O)CSc2nnc(-c3ccco3)o2)c1C
 : 8% | 5.7% | -8% | -1
- CCN(CC)S(=O)(=O)c1cc(C(=O)Nc2cc(C)[nH]n2)ccc1Cl
 : 23% | 1.4% | -27% | x
- COc1ccccc1CCNC(=O)C(=O)Nc1cc2c3c(c1)CC(=O)N3CCC2
 : 9% | 0.8% | x | x
- CCC(=C(c1ccc(OC)cc1)c1ccc(OC)cc1)c1cn(CC(O)CN(CCO)CCO)c2ccccc12 (centres undefined)
 : -5% | 1.5% | 8% | -3
- CC(=O)N1CCN(C(=O)COC(=O)c2oc3ccccc3c2C)CC1
 : 13% | 0.9% | x | x
- Cc1cc(NC(=O)CCC(=O)N(Cc2ccccc2)C2(C(=O)NC3CCCCC3)CCCC2)no1
 : 13% | 1.3% | 2% | 7
- N#CCCn1cc(C(=O)Nc2ccc(C(=O)O)cc2)c(-c2cccc(Br)c2)n1
 : -9% | 4.3% | -5% | x
- O=C1Nc2ccc(Cl)cc2[C@@](C#CC2CC2)(C(F)(F)F)O1
 : x | x | 15% | 1
- Cc1ccc(S(=O)(=O)N2CCCC2C(=O)Nn2cnnc2)cc1 (centres undefined)
 : 16% | -0.6% | -6% | 5
- Cc1cc(C)n(CCNC(=O)CCc2nnc(CCc3ccccc3)o2)n1
 : 10% | -0.6% | -5% | -15
- CC(/C=N/n1c(-c2cc(C)[nH]n2)n[nH]c1=S)=C\c1ccccc1
 : 6% | 2.4% | -19% | -14
- CCOc1ccc(/C=C2\SC(N3CCCCC3)=NC2=O)cc1
 : -6% | 0.2% | -14% | x
- O=C(Nc1cc(-c2ccccc2)nn1-c1c(Cl)cccc1Cl)c1ccc(F)cc1
 : -14% | u | x | x
- CCCCC(Sc1nc(N)c(NC(=O)c2ccco2)c(=O)[nH]1)C(=O)O (centres undefined)
 : 12% | -2.1% | 0% | x
- CC(C)CNC(=O)NC(=O)COC(=O)c1ccccc1Sc1ccc(C(F)(F)F)cc1[N+](=O)[O-]
 : 2% | 0.1% | -4% | 2
- O=C(c1ccccc1)c1ccc(OC(=O)N2CCOCC2)cc1
 : 0% | 0.6% | -10% | 3
- C#Cc1ccc([C@H]2C=C(C(=O)N3CCN(Cc4ccccc4)CC3)O[C@@H](OCc3ccc(CO)cc3)C2)cc1
 : 16% | -5.1% | 4% | -12
- O=C(CCCN1C(=O)/C(=C\c2cccs2)SC1=S)NNC(=O)c1cccnc1
 : -10% | 0.3% | 3% | -7
- COc1ccccc1CC(=O)Nc1cccc(C(=O)NN2C(=O)c3ccccc3C2=O)c1
 : -9% | 0.3% | 2% | -7
- Cc1onc(-c2c(Cl)cccc2Cl)c1C(=O)NCCc1ccc(S(N)(=O)=O)cc1
 : 4% | 4.2% | 1% | 2
- N#Cc1c(C(F)(F)F)cc(Cc2ccccc2)nc1SCC(=O)NCC(=O)O
 : -20% | -2.1% | x | x
- COCCCNC(=O)C(=O)Nc1ccc2c(c1)N(S(=O)(=O)c1cccs1)CCC2
 : -8% | -2.3% | x | x
- Cn1ccnc1SCC(=O)NC1CCCCC1
 : -1% | -2.6% | -9% | 9
- O=C(Nc1nc(-c2ccc3ccccc3c2)cs1)c1ccc(N2C(=O)CCC2=O)cc1
 : -18% | 2.3% | -4% | -6
- Cc1ccc(-c2cc(=O)c3cc(Cl)ccc3[nH]2)cc1
 : x | x | -61% | -8&3
- O=C(COC(=O)C1CC1)NC(=O)NCc1ccccc1
 : 13% | 0.9% | 0% | 3
- COCCOC(=O)C1=C(C)NC2(O)c3ccccc3C(=O)C12O (centres undefined)
 : -15% | u | -6% | 7
- Cc1c(NC(=S)N/N=C/C=C/c2ccccc2)c(=O)n(-c2ccccc2)n1C
 : -24% | -1.3% | 2% | -4
- COc1ccc2c(=O)c(-c3cnn(-c4ccccc4)c3)c(C)oc2c1
 : -12% | -0.4% | -1% | x
- CCCCCC(=O)Nc1cc(S(=O)(=O)N2CCOCC2)ccc1N1CCN(C)CC1
 : 2% | -4.4% | -6% | x
- COc1ccc(CN2CCc3ccccc3C2)cc1Br
 : 13% | -0.4% | 8% | x
- O=C(NNC1=C(C(=O)C(F)(F)F)CCC1)c1cccc(Cl)c1
 : -13% | -2.3% | -27% | 3
- COc1ccc(N=Cc2cc(Cc3ccccc3Cl)cc([N+](=O)[O-])c2O)cc1OC
 : 15% | 5.0% | -3% | -1
- CCOC(=O)N/N=C/c1ccc(Oc2ccccc2)cc1
 : 0% | -0.5% | -46% | -8
- CCCn1c2c(c(O)c(C(=O)Nc3nccs3)c1=O)CCCC2
 : 2% | -2.1% | -3% | 1
- Clc1ccc(-c2cnc(Oc3ccccc3)nc2)cc1
 : 0% | 0.1% | -62% | 10
- COCCCNC(=O)/C(C#N)=C/c1cc(C)[nH]c1C
 : -3% | -1.2% | -12% | 9
- COCCCNC(=O)/C(C#N)=C/c1c(N2CCN(C)CC2)nc2c(C)cccn2c1=O
 : u | u | -2% | x

(continued)
Values in the order – Rango dissoc inh | Rango-impB inh | miR-21 reporter | GLA inh pH 4.5
- COC(=O)N1CCN(c2ccc(C)cc2)C(C)C1 (centres undefined)
 : 7% | 4.6% | -8% | 0
- C/C(=N\OCC(=O)NC(C)C)c1cccs1
 : 8% | 4.3% | -16% | -4
- CCN(CC)S(=O)(=O)c1ccc(C(C)NC(=O)C2CCCN2C(=O)c2cccs2)cc1 (centres undefined)
 : -4% | 4.2% | x | x
- O=C(Nc1ccc(Cl)cc1)N[C@@H]1c2c(ccc3ccccc23)OC[C@@H]1CO
 : 6% | -0.5% | 6% | 12
- O=C(O)CCNC1CCCCC1
 : 3% | -2.5% | 1% | 5
- CC(=O)c1ccc(S(=O)(=O)N2CCN(c3ccccc3F)CC2)cc1
 : 32% | -2.0% | 7% | -6
- CCN1CCN(C(=S)Nc2ccc(Cl)cc2)CC1
 : 7% | -2.3% | -11% | 2
- CCCN(CC(=O)Nc1ccc(F)c(F)c1F)C(=O)c1ccc2c(c1)NC(=O)CS2
 : 3% | -0.2% | x | x
- CC(=O)c1ccccc1NC(=O)COC(=O)c1cc[n+]([O-])cc1
 : 3% | 3.7% | x | x
- N#Cc1cccc(NC(=S)Nc2ccccc2)c1
 : 0% | 0.7% | -7% | -7
- CCOc1ccc(NC(=O)C(=O)NCCN2CCN(S(=O)(=O)c3ccccc3)CC2)cc1
 : -11% | -3.0% | 3% | x
- CN(Cc1ccccc1)S(=O)(=O)c1ccc(Cl)c(C(=O)NCCCN2CCOCC2)c1
 : 9% | 3.8% | x | x
- COc1ccc(C(=O)N2CCC(C(=O)c3ccc(F)cc3)CC2)cc1
 : 9% | -2.3% | 21% | -17
- CC(C)(C)n1cnc2cc(NCc3cccs3)ccc21
 : -6% | -0.6% | -59% | 2
- COc1ccc2c(c1OC)C(=O)OC2C1c2c(cc3c(c2OC)OCO3)CCN1C (centres undefined)
 : -6%&10%&-5% | -0.1%&0.0%&6.5% | 11%&16% | 2&1&-1
- C#CCCC(=O)c1ccccc1/C=[N+](\[O-])c1ccccc1
 : 19% | 0.2% | x | x
- CCN(C(=O)c1ccccc1F)c1nc(-c2ccc(OC)cc2)cs1
 : 2% | -1.1% | -51% | x
- CCN(CC)C(=O)CN1C(=O)c2cccc3cccc1c23
 : -2% | u | -7% | x
- O=C(NCc1ccccc1)c1ccc2ccccc2n1
 : 0% | 1.5% | -5% | x
- O=C(NCCCn1ccnc1)c1cnn2c1NC(c1ccccc1)CC2C(F)(F)F (centres undefined)
 : 0% | u | -9% | -21
- O=C(NCCc1ccccn1)c1nc(Cn2cc([N+](=O)[O-])cn2)no1
 : 15% | -1.5% | -1% | x
- COC(=O)C1=C(C)N(CC2CC2)C(=NCCN2CCOCC2)N[C@H]1c1ccccc1
 : -9% | -2.7% | 0%&1% | x
- CC(C)(C)c1nnc(NC(=O)Nc2ccc(Cl)cc2)s1
 : -5% | 5.9% | -39% | -7
- O=C(COC(=O)CC1CC2CCC1C2)NC(=O)NC1CCCC1 (centres undefined)
 : -6% | -4.1% | -2% | 0
- COc1ccc(C)cc1Nc1nc(-c2ccccc2O)nc2ccccc12
 : -8% | -2.7% | 1% | x
- Cc1ccc(-n2[nH]c(C)c(/C=N/NC(=O)c3cccc([N+](=O)[O-])c3)c2=O)cc1C
 : x | x | -20% | 1
- Cc1ccc(NS(=O)(=O)c2c(F)cc(F)c(Cl)c2F)cc1S(=O)(=O)N1CCOCC1
 : -1% | 0.5% | x | x
- O=C(O)c1cccc(Nc2ncnc3ccc(Br)cc23)c1
 : 17% | 11% | 4%&-2% | 1
- CCOc1ccc(NC(=O)COC(=O)c2ncc(Cl)c(Cl)c2Cl)cc1
 : -10% | 2.2% | 0% | 2
- CCOC(=O)C1CCN(C(=O)Nc2cccc(Cl)c2)CC1
 : 11% | 4.6% | -7% | -15
- Cc1cc(C(=O)Nc2ccc(S(=O)(=O)N3CCCC3)cc2)no1
 : 8% | 2.3% | 1% | -2
- Nc1ccc(S(=O)(=O)NC2(C(F)(F)F)NC(=O)N(c3ccccc3F)C2=O)cc1 (centres undefined)
 : 6% | -3.3% | -3% | x
- COc1ccc(NC(=O)CCCc2ccccc2)c(OC)c1
 : 16µM* | -0.1% | -36% | x
- COc1ccccc1N1CCN(C(c2cccs2)C(C)NC(=O)C(=O)N2CCCCC2)CC1 (centres undefined)
 : -3% | 5.6% | 1% | x
- COc1ccc(NC(=O)NCCCN2CCc3ccccc3C2)cc1
 : 8% | -0.6% | -5% | 0
- COc1ccc2cc(Br)ccc2c1CC(=O)NC1CC(C)(C)NC(C)(C)C1
 : -14% | 5.0% | 14% | -12
- Cc1[nH]n(-c2ccccc2)c(=O)c1/C=C1\C=NN=C1c1ccccc1
 : -11% | 1.8% | 3% | -3
- O=C(NC1CCCN(Cc2ccc(Cl)cc2)C1)c1cccc(F)c1 (centres undefined)
 : -9% | 3.1% | 8% | x
- Cc1cccnc1CCNCc1c(C(=O)N2C[C@@H](C)O[C@@H](C)C2)nc2ccc(Cl)cn12
 : -5% | -1.1% | -2% | x
- COC(=O)c1ccc(Cl)c(NC(=O)CN(c2ccc(OC)c(OC)c2)S(C)(=O)=O)c1
 : 14% | -5.5% | -12% | 5
- CSc1ccccc1NC(=O)c1cc2ncc(Br)cn2n1
 : -9% | 0.2% | -32% | 2

Some of the compounds tested (hit frequency here may not be typical).
